# From PubChem BioAssay
# ClpP mod = qHTS Assay for Activators of ClpP. ATP-dependent Clp protease proteolytic subunit (Bacillus subtilis (strain 168)), P80244. purified B. subtilis ClpP, FRET peptide cleavage, 20 min. hit rate 1.9% among 340,000. Potency, µM (highest dose often 57.5 µM), inactives show at the top dose activity change, negative = active; active = well fitted falling curve with a large enough effect; inconclusive = small, poorly fitted or top-dose-only effect; inactive = no such curve, though single readings can be large or run the other way; also: potency is read from the fitted curve at half-maximal effect; the source files actives as falling curves though it sought activators and does not explain the sign; nearly all actives have a fitted effect of over 65% in size; many hits overshoot -100%
# Target sequence (P80244 whole entry, looked up): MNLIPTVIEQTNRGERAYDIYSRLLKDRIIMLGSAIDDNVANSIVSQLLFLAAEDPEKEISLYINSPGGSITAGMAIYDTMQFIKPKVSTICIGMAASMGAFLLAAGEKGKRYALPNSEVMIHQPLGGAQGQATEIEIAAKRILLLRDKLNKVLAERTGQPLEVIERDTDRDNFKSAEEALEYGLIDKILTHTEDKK
#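 Purified B. subtilis ClpP, 10 microg/mL final in Tris/HCl pH8 with KCl, BSA, glycerol and Tween-20, cleaved an Abz/nitrotyrosine-quenched decapeptide. Fluorescence (ex 320, em 430) was read at 0 and 20 min at room temperature. Delta was normalized to 5.8 microM ADEP and DMSO/no-enzyme controls.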
# D2 PAM = human D2 receptor positive allosteric modulation; potentiation, % (no concentration beside the values); DiscoveRx D2 beta-arrestin cells, luminescence, 90 min; 100% = 57 uM dopamine signal; P14416; hit rate 0.23% among 360,000; active = potentiation of 50% or more; inconclusive = 30% to 50%; inactive = 30% or less;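 also: compound concentration not given in the record; tested on top of an EC20 dose of dopamine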
# Target sequence (P14416 whole entry, looked up): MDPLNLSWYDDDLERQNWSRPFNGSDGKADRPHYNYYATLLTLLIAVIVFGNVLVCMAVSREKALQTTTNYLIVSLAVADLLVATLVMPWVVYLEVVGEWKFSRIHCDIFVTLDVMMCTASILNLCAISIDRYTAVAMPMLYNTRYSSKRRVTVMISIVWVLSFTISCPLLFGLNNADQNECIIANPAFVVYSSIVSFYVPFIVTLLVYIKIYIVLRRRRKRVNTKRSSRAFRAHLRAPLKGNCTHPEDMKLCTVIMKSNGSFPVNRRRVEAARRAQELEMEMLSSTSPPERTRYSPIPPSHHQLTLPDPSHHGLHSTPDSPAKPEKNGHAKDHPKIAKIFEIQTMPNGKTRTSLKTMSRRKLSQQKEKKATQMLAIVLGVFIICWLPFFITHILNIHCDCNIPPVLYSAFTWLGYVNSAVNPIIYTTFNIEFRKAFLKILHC
#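 D2 cells co-treated with compound plus 50 nM dopamine (EC20) for 90 min at 37 deg C to detect potentiation. Beta-arrestin recruitment was read as enzyme-fragment luminescence after 1 h at ambient temperature. Full response was set by 57 uM dopamine.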
# Active calls of the source: *; ? = inconclusive. These rows are one share of the data. The share of hits here may be higher or lower than overall.
cpd	SMILES	ClpP mod	D2 PAM
1	COc1cccc(NC(=O)Nc2nnc([C@H]3C[C@H](O)[C@@H](CO)O3)s2)c1	-3.8%	-9.8
2	COCCNC(=O)C1(C)CCCN(C(=O)Cc2ccc3ccccc3c2)C1 (centres undefined)	-0.5%	-13.7
3	O=C(NCc1cccc(F)c1)c1[nH]c(C(F)(F)F)nc1-c1ccccc1	-2.5%	-4.8
4	COCCNC(=O)C1CCCN(Cc2ccc(C)cc2)CC1 (centres undefined)	-1.5%	-10.5
5	O=c1[nH]cc(C=NNc2ccccc2)c(=O)[nH]1	-1.6%	-0.5
6	O=C(c1cccc(-c2cccc3nccn23)c1)N1CCOCC1	5.1%	-1.3
7	CCN(CC)CCN(C)C(=O)c1[nH]c(C(F)(F)F)nc1-c1ccccc1	-5.7%	-6.0
8	O=C(CSc1ncccn1)N(Cc1cccnc1)C(CCc1ccccc1)c1nc2ccccc2[nH]1 (centres undefined)	-6.7%	-4.0
9	CCNC(=O)N(C)c1c(CC)nc2ccc(C(=O)N3CCN(C(C)=O)CC3)cn12	0.5%	-6.8
10	CCCNC(=O)c1cc(C2CCCCN2C(=O)CCCc2ccccc2)on1 (centres undefined)	0.5%	-3.5
11	COc1cccc(Nc2nc(C(N)c3ccccc3)cs2)n1 (centres undefined)	-6.9%	-12.5
12	COCCC(=O)N1CCOCC1c1cc(C(=O)Nc2ccccc2)no1 (centres undefined)	2.1%	4.2
13	CC1(C(=O)NS(=O)(=O)c2ccc(F)cc2F)CCN1C(=O)C1(c2ccc(Cl)cc2)CCC1 (centres undefined)	5.7%	4.2
14	CCc1nc2c(OCc3ccccc3C(=O)OC)cccn2c1N(C)C(=O)c1cccs1	-0.8%	-16.3
15	CCOC(=O)C1(C)CCN1C(=O)c1cc(OC)ccc1Br (centres undefined)	0.9%	-9.3
16	O=C(Nc1ccc2c(c1)OCCO2)C(C1CC1)N1CCC(Cc2ccccc2)CC1 (centres undefined)	-0.2%	-10.5
17	CCCCNS(=O)(=O)c1cccc(NC(=O)[C@@H]2O[C@H](CO)[C@H](O)[C@H](O)[C@H]2O)c1	0.4%	-22.4
18	CC1(C(=O)NS(=O)(=O)c2ccccc2)CCN1C(=O)Cc1ccccc1Cl (centres undefined)	0.9%	-2.6
19	CN(C)c1ccc(NC(=O)Nc2ccc3c(c2)c(=O)n(C)n3-c2ccccc2)cc1	-11.1%	1.1
20	CC(=O)Nc1cc(-c2ccccc2CN(C)C)cn2c(-c3ccc(F)c(Cl)c3)cnc12	4.5%	-14.4
21	CC(C)c1ccc(CN2CCC2(C)C(=O)Nc2cccc(Oc3ccccc3)c2)cc1 (centres undefined)	0.0%	-8.5
22	C(=C\c1ccccc1)/CN1CCN(C(c2cc3ccccc3o2)c2nnnn2C2CCCC2)CC1 (centres undefined)	-3.5%	-15.1
23	CS(=O)(=O)c1ccc(-c2csc(C(O)(c3ccccc3)C(F)(F)F)n2)cc1 (centres undefined)	-1.0%	16.2
24	COc1cc2oc(=O)cc(CN3CCCC3)c2cc1Cl	4.5%	1.3
25	O=C(Nc1ccccc1)c1cc(C2CCCCN2S(=O)(=O)c2ccccc2)on1 (centres undefined)	0.0%	-1.7

# Complete entries as entered above. Screens in order: ClpP mod	D2 PAM
# `CN(C)c1ccc(NC(=O)Nc2ccc3c(c2)c(=O)n(C)n3-c2ccccc2)cc1` is entered as -11.1%	1.1
# `COc1cccc(NC(=O)Nc2nnc([C@H]3C[C@H](O)[C@@H](CO)O3)s2)c1` is entered as -3.8%	-9.8

# Next records follow.
cpd	SMILES	ClpP mod	D2 PAM
26	Cc1ccc(Cc2c(C3CCCCC3)nc3cc(C)c(Br)c(C)n23)cc1	-3.5%	-2.6
27	CN1OC[C@@H]2CN3C(=O)N(c4ccccc4)c4ccccc4[C@@H]3C[C@@H]21	-3.1%	-7.8
28	O=C(Nc1ccc2c(c1)OCO2)C1Cc2c(-c3ccncc3)ccnc2O1 (centres undefined)	0.7%	-9.0
29	COc1cccc(C(NC(C)=O)c2nc(-c3cccc(F)c3)cs2)c1 (centres undefined)	-2.3%	2.9
30	CC(O)(c1ccc(F)c(F)c1)c1nc(-c2cccc(C#N)c2)cs1 (centres undefined)	-23.7%	5.8
31	Cc1cc(Cl)ccc1-c1cc2nc(NCCCN(C)C)n(C)c(=O)c2s1	-17.0%	-0.6
32	COC(=O)c1ccc2nc(C3CCCCC3)c(Cc3ccc(C)cc3)n2c1	-13.8%	-11.2
33	CCCCC(=O)N(C)c1c(CC)nc2c(OCc3ccc(S(C)(=O)=O)cc3)cccn12	-1.2%	-5.8
34	CCOC(=O)C1=CCN(S(=O)(=O)c2ccccc2Br)C1c1ccc(Cl)c(Cl)c1 (centres undefined)	-2.9%	-8.6
35	CC1=CN2C(c3cccc([N+](=O)[O-])c3)=NON(c3ccc(C)cn3)C2C=C1 (centres undefined)	-2.8%	5.1
36	CC1(C(=O)NS(=O)(=O)c2cccc(Cl)c2)CCN1C(=O)CC1CCCCC1 (centres undefined)	-1.0%	7.6
37	COc1ccc(C(C)C)cc1-c1cncc(NC(C)=O)n1	?	-8.3
38	CCc1nc2ccc(C(=O)N3CCN(S(=O)(=O)CC)CC3)cn2c1N(CC)CCOC	-0.5%	0.4
39	C=C(C)Cn1c2ccc(NC(=S)NCc3ccccc3F)cc2c(=O)n1C	4.0%	-6.0
40	CN(C)C(=O)c1ccc(SC(=S)NCc2ccccc2)cc1	-1.2%	-11.6
41	O=C(Nc1nc2ccccc2s1)c1ccc2sc([C@H]3C[C@H](O)[C@@H](CO)O3)nc2c1	5.0%	4.8
42	NC(COCc1ccccc1)c1csc(Nc2cc(NCCCO)ncn2)n1 (centres undefined)	-2.2%	-3.8
43	O=[N+]([O-])c1ccc(NS(=O)(=O)c2ccc(Cl)c(Cl)c2)cc1	1.0%	-6.7
44	CN(C)c1cccc(CNC(=O)c2csc(COCCO)n2)c1	-0.3%	-10.3
45	NC(=O)c1cccc(-c2ccnc3c2CC(C(=O)NCCC(F)(F)F)O3)c1 (centres undefined)	-10.0%	-2.6
46	Cc1ccc(C(=O)N2CCN(c3ccc4c(c3)C3CC4CCN3C(=O)OCc3ccccc3)CC2)cc1 (centres undefined)	0.4%	-8.6
47	CCCCCCN1CCN(C2CN(CCCC)S(=O)(=O)C2)CC1 (centres undefined)	1.2%	-13.7
48	CC(=O)NC(c1ccccc1)c1nc(-c2cccc(CO)c2)cs1 (centres undefined)	1.5%	1.4
49	COc1ccc(C(=O)N2CCC(C)(C(=O)O)C2)cc1OC (centres undefined)	1.4%	-4.5
50	CCCCN1CC(N2CCN(CCO)CC2)CS1(=O)=O (centres undefined)	-3.3%	-4.2

# Reprinted at random: two compounds from above.
cpd	SMILES	ClpP mod	D2 PAM
44	CN(C)c1cccc(CNC(=O)c2csc(COCCO)n2)c1	-0.3%	-10.3
46	Cc1ccc(C(=O)N2CCN(c3ccc4c(c3)C3CC4CCN3C(=O)OCc3ccccc3)CC2)cc1 (centres undefined)	0.4%	-8.6

# (listing goes on)
cpd	SMILES	ClpP mod	D2 PAM
51	CC1(C(=O)NS(=O)(=O)c2cccc(Cl)c2)CCN1C(=O)C1(c2ccc(Cl)cc2)CC1 (centres undefined)	-0.8%	-0.8
52	COCCNc1nc(Nc2ccc(F)cc2)c2sccc2n1	-7.7%	-6.9
53	CC1(C(=O)NS(=O)(=O)c2ccc(Cl)cc2)CCN1C(=O)c1cccc(F)c1 (centres undefined)	0.4%	-4.4
54	CC1(C(=O)Nc2ccc(Cl)c(C(F)(F)F)c2)Cc2c(-c3cccc(C(N)=O)c3)ccnc2O1 (centres undefined)	-7.6%	0.9
55	Cc1c(C(=O)NCc2ccc3c(c2)OCCO3)sc(=O)n1Cc1ccc(S(=O)(=O)N(C)C)cc1	-0.8%	-6.0
56	CCc1nc2c(OCc3ccccc3C)cccn2c1N(C)C(=O)C1CC1	-1.5%	-5.3
57	CCOc1ccc(C2CC=C(C(C)=O)CN2S(=O)(=O)c2ccc(C)cc2)cc1 (centres undefined)	-3.6%	-6.6
58	COc1ccc(NC(=O)C2Cc3c(-c4ccc(Cl)cc4)ccnc3O2)cc1 (centres undefined)	-0.1%	-6.6
59	CC(=O)NC(c1ccc(F)c(F)c1)c1nc(-c2ccccc2)cs1 (centres undefined)	-0.2%	-0.1
60	Cc1ccc(Nc2nc(NCc3ccccc3)nc3ccsc23)c(C)c1	?	-16.8
61	COc1ccc(C(C)=O)cc1Cn1c(C)c(C(=O)NCc2ccc(C(C)C)cc2)sc1=O	0.1%	-2.0
62	Cc1nc(-[n+]2nc(-c3ccncc3)nn2-c2ccccc2)sc1C	2.0%	18.4
63	CCOC(=O)C1=CCN(S(=O)(=O)c2ccc(C)cc2)C1c1cccc(Cl)c1 (centres undefined)	-3.3%	-4.8
64	COc1cc(C(O)c2nc(-c3cccc(C(=O)O)c3)cs2)ccc1F (centres undefined)	3.5%	0.6
65	CCCC(=O)N1CCCC1(C)C(=O)NCc1c(F)ccc(C)c1F (centres undefined)	-1.9%	0.0
66	COCCNC(=O)c1cc2c(c(-c3cccc(C#Cc4ccc(OC)c(OC)c4)c3)n1)[C@@H](CCO)N(S(=O)C(C)(C)C)C2 (some centres undefined)	-6.1%	0.3
67	COc1ccc(NC(=O)c2cc(-c3cc(F)ccc3OC)n[nH]2)cc1OC	-9.4%	-4.9
68	C=C[C@]1(C)C=C2C(=O)[C@@]3(O)OC(=O)[C@@]4(CCCC(C)(C)[C@H]34)[C@@]2(O)CC1	-5.6%	7.8
69	CC(C)C(=O)N1CCC1(C)C(=O)Nc1ccccc1OC(F)F (centres undefined)	-0.8%	-2.7
70	CCCCN1C(=O)C(CC(=O)NC2CCCCC2)CC(C(=O)N2CCOCC2)=C1C (centres undefined)	1.2%	-2.3
71	C=CCOc1cccn2c(N(C)C(=O)c3ccc(OC)cc3)c(CC)nc12	-2.3%	-0.4
72	Cc1cc(C)cc(CC(=O)N2CCC2(C)C(=O)NS(=O)(=O)c2ccccc2Cl)c1 (centres undefined)	0.6%	-6.3
73	CNc1ncnc2c1ncn2[C@H]1CN(Cc2cccnc2)C[C@@H](CO)O1	-0.2%	-9.7
74	NC(CCc1ccccc1)c1csc(Nc2cnccn2)n1 (centres undefined)	-3.6%	-20.2
75	Cc1ccccc1CNC(=O)c1ccc2sc([C@H]3C[C@H](O)[C@@H](CO)O3)nc2c1	-0.3%	0.6

# Among those listed so far, these contain a thiophene ring, fused or not.
cpd	SMILES	ClpP mod	D2 PAM
14	CCc1nc2c(OCc3ccccc3C(=O)OC)cccn2c1N(C)C(=O)c1cccs1	-0.8%	-16.3
31	Cc1cc(Cl)ccc1-c1cc2nc(NCCCN(C)C)n(C)c(=O)c2s1	-17.0%	-0.6
52	COCCNc1nc(Nc2ccc(F)cc2)c2sccc2n1	-7.7%	-6.9
60	Cc1ccc(Nc2nc(NCc3ccccc3)nc3ccsc23)c(C)c1	?	-16.8

# Continuation.
cpd	SMILES	ClpP mod	D2 PAM
76	CSc1ncccc1C(=O)N1CCC1(C)C(=O)NC(C)C (centres undefined)	-0.9%	-1.7
77	O=C(Nc1ccc(F)cc1)Nc1nnc([C@H]2C[C@H](O)[C@@H](CO)O2)s1	-1.3%	0.5
78	CS(=O)(=O)N1CCCCC1c1cc(C(=O)NCc2ccccc2)no1 (centres undefined)	-3.6%	-7.8
79	CSc1ccc(Cn2c(C)c(C(=O)NCc3cccc(Cl)c3)sc2=O)cc1	-0.8%	-5.0
80	CCc1ccc(S(=O)(=O)NCc2ccc(C(=O)NCCN(Cc3ccccc3)C(C)C)cc2)cc1	-2.7%	-11.8
81	NC(c1csc(Nc2cc(NCCCO)ncn2)n1)c1ccccc1Cl (centres undefined)	-1.7%	-4.3
82	COc1ccccc1CNc1nc(Nc2cccc(-c3cnco3)c2)c2sccc2n1	4.4%	-25.3
83	Cc1nc(C(F)(F)F)ccc1C(=O)N1CCC1(C)C(=O)NCc1cccs1 (centres undefined)	1.3%	1.8
84	Fc1ccc(Nc2cncc(-c3ccsc3)c2)cc1Cl	-6.0%	-1.4
85	COc1cccc(-c2cccc(-c3nc(C(=O)NCc4ccc5c(c4)OCO5)cc4c3[C@H](CCO)N(S(=O)C(C)(C)C)C4)c2)c1 (some centres undefined)	0.7%	12.9
86	CC1(C(=O)Nc2cccc3c2CCCC3)CCN1C(=O)C1(c2ccc(Cl)cc2)CC1 (centres undefined)	-1.6%	-3.6
87	CCOc1ccccc1-c1ccc2nccn2c1	4.2%	-16.8
88	CCCCNC(=O)C1(C)CCC(=O)N1CCOc1ccccc1 (centres undefined)	2.3%	-1.0
89	CC[C@@H](NC(=O)[C@@H](Cc1ccccc1)NC(=O)CC[C@H]1O[C@@H](n2ccc(=O)[nH]c2=O)[C@H](O)[C@@H]1O)c1ccccc1	2.0%	-6.8
90	COc1ccc(C#Cc2cccc(-c3nc(C(=O)N4CCN(C)CC4)cc4c3[C@H](CCO)N(S(=O)C(C)(C)C)C4)c2)cc1OC (some centres undefined)	-0.4%	-3.1
91	CC(=O)Nc1cccc(-c2ccnc3c2CC(C)(C(=O)NCc2ccccc2)O3)c1 (centres undefined)	-13.9%	-4.5
92	CN(C)c1ccc(CNc2nc3cc(-c4ccc(F)cc4)sc3c(=O)n2C)cc1	-7.0%	-3.2
93	COc1cccc(C(C)(O)c2nc(-c3ccc(N(C)C)cc3)cs2)c1 (centres undefined)	-6.8%	-3.1
94	CC(C)CNc1ncnc2c1ncn2[C@H]1CN(Cc2ccc(C(=O)O)cc2)C[C@@H](CO)O1	-3.6%	-2.9
